Screens deposited in PubChem by National Center for Advancing Translational Sciences (NCATS).
VDR inhibitor: vitamin D3 receptor (human) inhibition | P11473 | VDR-SRC2-3 peptide fluorescence polarization, 2 h | Potency, µM, inactives show max response, negative = inhibition, hits mostly inhibitors | 400,000 tested, 0.93% active | AID 504847; active means well fitted inhibition curve with a large enough effect; inconclusive means small, poorly fitted or top-dose-only effect, or another doubt; inactive means no such curve, though single readings can be large or run the other way; further: series mostly up to about 120 µM
Target sequence (P11473 whole entry, looked up): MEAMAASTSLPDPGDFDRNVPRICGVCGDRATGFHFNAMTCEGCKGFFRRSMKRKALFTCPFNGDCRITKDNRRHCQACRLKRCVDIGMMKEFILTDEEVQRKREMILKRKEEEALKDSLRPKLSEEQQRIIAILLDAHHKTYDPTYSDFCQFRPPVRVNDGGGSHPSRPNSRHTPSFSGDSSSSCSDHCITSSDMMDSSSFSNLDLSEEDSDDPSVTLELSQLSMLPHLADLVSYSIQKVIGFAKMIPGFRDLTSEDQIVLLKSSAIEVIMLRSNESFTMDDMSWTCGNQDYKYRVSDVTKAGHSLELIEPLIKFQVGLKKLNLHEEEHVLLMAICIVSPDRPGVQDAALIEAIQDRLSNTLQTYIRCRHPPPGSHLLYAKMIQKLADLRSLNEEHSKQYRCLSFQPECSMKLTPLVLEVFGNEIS
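Signal is fluorescence polarization, reporting how far test compounds block the interaction of VDR with the SRC2-3 coregulator peptide after a 2 h room-temperature incubation.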
Starred values were filed as active, the others as inactive; ? = inconclusive; [ ] = remark or other dose. On the % scale 0 is the no-effect control and ±100 the full control effect; potency means the concentration at half of the fitted maximal effect.

entry	smiles	VDR inhibitor
1	Cc1ccc(OCCCCn2ccnc2)c(Cl)c1	8%
2	C/C(CC(=O)Nc1ccc(Br)cc1)=N\NC(=O)Cc1csc(N)n1	-14%
3	Cc1ccc(/C=C/C(=O)N2CCN(c3cccc(C(F)(F)F)c3)CC2)cc1	-3%
4	O=[N+]([O-])c1nn(-c2ccc3c(c2)OCCO3)n(O)c1=NCCCO	7%
5	Cc1nc2ccccc2n1CCc1nc2c3ccccc3nc(SCC(=O)NCc3ccco3)n2n1	6%
6	Cc1cc2c(cc1C)NC(c1nc3ccccc3[nH]1)C1=C(CC(C)(C)CC1=O)N2 (stereo not drawn)	13%
7	Cc1nc2cnc(OCc3ccccc3)nc2n(CCC#N)c1=O	1%
8	O=C(COc1ncnc2c1cnn2-c1ccccc1)Nc1ccc(S(=O)(=O)N2CCCCC2)cc1	-1%
9	COc1ccc(-n2c(CNC(=O)c3cccs3)n[nH]c2=S)cc1	-6%
10	O=C1c2cccnc2C(Nc2ccc(Br)cc2)N1Cc1cccs1 (stereo not drawn)	-8%
11	O=C(Nc1ccc(-c2csnn2)cc1)C1CC1	11%
12	O=C(C1CC1)N1CCN(S(=O)(=O)c2ccc3c(c2)OCCO3)CC1	12%
13	CCOC(=O)[C@@H]1[C@H]2COc3ccccc3[C@H]2N2C(=O)N(c3ccccc3)C(=O)[C@]12C	11%
14	O=C(O)c1ccc(S(=O)(=O)c2ccc3c(c2)C(=O)N(NC(=O)c2cccnc2)C3=O)cc1	-8%
15	CC1(C)CC1C(=O)Nc1ccc([N+](=O)[O-])cc1Br (stereo not drawn)	-17%
16	O=C(Nc1ccccc1N1CCOCC1)c1cnccn1	6%
17	COc1ccc2c(=O)c(-c3ccc(C)cc3)c(-c3ccccc3)oc2c1	6%
18	CC1CN=C(N(Cc2ccccc2)C(=O)Nc2ccccc2)S1 (stereo not drawn)	8%
19	COc1ccccc1NS(=O)(=O)c1cccc(C(=O)NNC(=O)c2ccc(=O)[nH]c2)c1	30%[activator]
20	Cc1ccnc(NC(=O)Cn2cc([N+](=O)[O-])cn2)c1	12%
21	O=C(CN(C(=O)CCC(=O)Nc1nccs1)c1ccc(F)cc1)NCc1ccco1	-7%
22	CC(=O)Nc1ccc(OCC(=O)NC(C)c2ccc(F)cc2)cc1 (stereo not drawn)	-10%
23	COCCN(Cc1ccccc1)C(=O)c1cccc(S(=O)(=O)N(C)c2c(C)n(C)n(-c3ccccc3)c2=O)c1	-6%
24	COC(=O)CN1C(=O)[C@H]2[C@@H](c3ccc(C)o3)N3C(=O)CN(Cc4ccccc4)C(=O)[C@@]3(C)[C@H]2C1=O	-13%
25	Cc1nn(C(=O)c2c(F)cccc2F)c(C)c1S(=O)(=O)N1CCOCC1	1%
26	Cc1cccc(NC(=O)N2CCC(n3nnc4cc(C)ccc43)CC2)c1	10%
27	O=C(CCNC(=O)c1ccco1)Nc1ccc(SC(F)F)cc1	-14%
28	O=C(Nc1nnc(-c2ccc(Cl)cc2)o1)Nc1ccccc1Cl	-18%
29	Cc1nc(C)c(-c2ccc(SCC(=O)Nc3ccc(C)c(F)c3)nn2)s1	-6%
30	COc1ccc2c(c1OC)C(=O)N(c1cccc(C(F)(F)F)c1)C2	2%

Three entries from above, with the structure last.
nr | VDR inhibitor | compound
1 | 8% | Cc1ccc(OCCCCn2ccnc2)c(Cl)c1
8 | -1% | O=C(COc1ncnc2c1cnn2-c1ccccc1)Nc1ccc(S(=O)(=O)N2CCCCC2)cc1
10 | -8% | O=C1c2cccnc2C(Nc2ccc(Br)cc2)N1Cc1cccs1 (stereo not drawn)

3 entries from above, with each value named:
10. O=C1c2cccnc2C(Nc2ccc(Br)cc2)N1Cc1cccs1 (stereo not drawn)
  VDR inhibitor: -8%
11. O=C(Nc1ccc(-c2csnn2)cc1)C1CC1
  VDR inhibitor: 11%
12. O=C(C1CC1)N1CCN(S(=O)(=O)c2ccc3c(c2)OCCO3)CC1
  VDR inhibitor: 12%

The listing continues.
entry	smiles	VDR inhibitor
31	COC(CNC(=S)Nc1ccc([N+](=O)[O-])cc1)OC	2%
32	O=C(CCl)NC(Cc1ccccc1)c1ccccc1 (stereo not drawn)	-11%
33	COc1ccc(NC(=O)C2CCN(C(=O)Nc3ccc(C)cc3)CC2)cc1OC	5%
34	O=C(Nc1ccc(F)cc1F)c1ccc(-n2cccn2)nc1	-27%
35	CC(=O)NC(=S)Nc1ccc(S(=O)(=O)N2CCOCC2)cc1	12%
36	CCOC(=O)c1c(C)nc2cc(C)cc(C)n12	11%
37	Cc1ccc(SCc2cc(-c3ccc(Cl)cc3)no2)cc1	-11%
38	Cc1cccc(NC(=O)CCC(=O)N/N=C/c2ccco2)c1	5%
39	CCCCCCCCCCCCCCCC(=O)NCCc1c[nH]c2ccccc12	7%
40	C[C@H]1CN=C(Nc2ccccc2)N1CC1CCC1	1%
41	Cc1ccc2c(Sc3ccc(Cl)cc3)c(C(=O)NCCC(C)C)[nH]c2c1	9%
42	CC(C)N(Cc1cnn(C)c1)C(=O)C1CCC(=O)N(CCc2cccc(F)c2)C1 (stereo not drawn)	3%
43	CN(C)CCCNc1oc(/C=C/c2cccs2)nc1S(=O)(=O)c1ccccc1	-6%
44	Cc1cccc(NS(=O)(=O)c2cc([N+](=O)[O-])ccc2C)n1	-13%
45	Cc1cc(C)cc(NS(=O)(=O)c2ccc3[nH]cc(C(=O)NC4CCCCC4)c(=O)c3c2)c1	2%
46	O=C(CSc1nc(=O)n2ccccc2n1)NCc1ccccc1	-6%
47	Nc1c(C(=O)NCCc2ccccc2)nnn1CC(=O)Nc1ccc(Cl)cc1	8%
48	CCOC(=O)C(=O)Nc1ccc(S(=O)(=O)Nc2ncccn2)cc1	1%
49	Cc1ccc(NCC(=O)N/N=C/c2c[nH]c3ccccc23)cc1	-2%
50	CCOC(=O)C1(Cc2ccccc2C)CCCN(C(=O)COC)C1 (stereo not drawn)	22%
51	COc1cccc(CNC(=O)CCC2CCCN(C(=O)C3CCOCC3)C2)c1 (stereo not drawn)	4%
52	COc1ccc2[nH]c3c(c2c1)CCNC3c1ccc([N+](=O)[O-])o1 (stereo not drawn)	?
53	COc1ccc(CN(CC2CCC(C(=O)O)CC2)C(=S)Nc2cc(C)ccc2C)cc1 (stereo not drawn)	-5%
54	C=CCOc1ccc2c3c(c(=O)oc2c1)CCCC3	-5%
55	O=C(/C=C/c1ccc([N+](=O)[O-])s1)N1CCCCC1	-2%
56	COc1cccc(-c2ccc3c(N)c(C(=O)NCc4ccc(Cl)cc4)sc3n2)c1	-3%
57	O=C1S/C(=C/c2ccc(N3CCOCC3)o2)C(=O)N1Cc1ccc(F)cc1	?
58	COc1ccc2c(c1OC)C(=O)N1c3ccccc3C(=O)N(c3ccccc3F)C21 (stereo not drawn)	-9%
59	Cc1ccc(OCCN(C)C(=O)C2CCC(=O)N(CCCN3CCOCC3)C2)cc1 (stereo not drawn)	3%
60	CCc1ccc(CNC(=O)c2cccc(-n3c(C)nc4cccnc43)c2)cc1	1%
61	O=[N+]([O-])c1cccc(Nc2c3ccccc3nc3ccccc23)c1	-6%
62	COc1cc(-c2[nH]ncc2CN2CCN(c3cccc(C)n3)CC2)cc(OC)c1OC	-2%
63	Cc1ccc(Nc2nc3ccccc3nc2Nc2c(C)n(C)n(-c3ccccc3)c2=O)cc1	-5%
64	O=C(O)Cn1nnc(COc2ccccc2)n1	-8%
65	COCCCNC(=O)CCCn1c(SCC(=O)c2ccc(Br)cc2)nc2c(sc3ccccc32)c1=O	-25%
66	O=c1cc(-c2cc3ccccc3oc2=O)c2ccc(O)cc2o1	6%
67	Cc1ccc(C(=O)NC2CCC(C)CC2)s1 (stereo not drawn)	9%
68	Cc1ccc(-c2nnnn2-c2ccc(C)cc2)cc1	?
69	CS(=O)(=O)c1ccccc1-c1nc(-c2ccc([N+](=O)[O-])cc2)no1	-9%
70	CCOc1ccc(N2C(=O)C3=C(C(c4ccc(Cl)cc4)=NCCN3)C2c2cccnc2)cc1 (stereo not drawn)	13%
71	NNc1nc(C(F)(F)F)nc2ccccc12	-5%
72	O=C(N/N=C/c1ccc(Sc2nc3ccccc3[nH]2)o1)c1ccncc1	-10%
73	N#CC(c1ccc(F)cc1)c1ccc(C(=O)c2ccccc2)cc1 (stereo not drawn)	-7%
74	COc1cccc(OCCCCCCN2CCOCC2)c1	8%
75	C=CCNC(=O)N1CCCC(N2CCN(c3ccccc3OC)CC2)C1 (stereo not drawn)	2%
76	CCOC(=O)c1c(/N=C/N(C)C)sc(/C=N/Nc2ccccc2)c1-c1ccccc1Cl	-6%
77	CCSc1nnc(NC(=O)Cc2ccc(OC)c(OC)c2)s1	-1%
78	Cc1nnc(-c2ccc(Oc3ccc(C)c(C)c3)c([N+](=O)[O-])c2)o1	11%
79	OC[C@@H]1O[C@@H](Oc2ccc(O)cc2)[C@H](O)[C@@H](O)[C@@H]1O	4%
80	CN(Cc1ccccc1)C(=O)CSc1nc2ccccc2[nH]1	-7%
81	Cc1ccc(-n2c(SCC(=O)NCC3CCCO3)nc3c(c2=O)SCC3)cc1 (stereo not drawn)	-16%
82	COc1cc(Cl)ccc1OCc1cc(C(=O)N2CCCCCC2)no1	-22%
83	Cc1ccccc1NC(=O)CSc1nc2nccnc2c(=O)n1CCc1c[nH]c2ccccc12	-1%
84	COc1ccc(-c2cc(C(=O)N3CCN(c4ccccc4O)CC3)c3ccccc3n2)cc1	-4%
85	Cc1nc(Nc2ccccc2C)c2cnn(C)c2n1	-6%
86	COc1ccccc1-c1cc(C(=O)NCc2ccccc2)no1	3%
87	CCc1noc(C)c1C(=O)Nc1ccc(-c2nnc3n2CCCCC3)cc1	7%
88	Cc1cccc(C)c1NC(=O)CSc1nnc(C)n1-c1ccccc1	11%
89	Cc1nn(-c2ccccc2)c(C)c1C(=O)OCC(=O)N1CC(=O)Nc2ccccc21	13%
90	CCOC(=O)CC(=O)CSCC(=O)Nc1ccc(C)cc1	?

Other records
entry	smiles	VDR inhibitor
91	COc1cc(/C=N/NC(=O)c2cccs2)ccc1OCc1ccccc1	0%
92	CC1C(=O)Nc2ccccc2N1C(=O)c1ccccc1 (stereo not drawn)	3%
93	O=C(O)c1ccc(N2C(=O)/C(=C/c3ccc(-c4ccc([N+](=O)[O-])cc4)o3)C=C2c2ccccc2)cc1	?
94	CCOC(=O)c1ccc(NC(=O)CC2C(=O)N(c3cccc(OC)c3)C(=O)N2Cc2ccc(OC)cc2)cc1 (stereo not drawn)	-3%
95	CC(=O)c1cc(N2CCOCC2)ccc1[N+](=O)[O-]	-2%
96	Cc1ccc(C(=O)Nc2ccc(C(=O)N3CCCCC3)cc2)o1	-6%
97	Cc1cc(C)nc(SCC(=O)Nc2ccc(S(=O)(=O)N3CCCCC3)cc2)n1	3%
98	COc1ccc(CNC(=S)NNC(=O)c2cc3ccccc3o2)cc1	-23%
99	CCN1C(=O)[C@@H]2[C@@H](c3ccc(SC4CCCCC4)cc3)N3CCCC[C@@]3(C(=O)OC)[C@@H]2C1=O	-3%
100	O=C(Nc1cccc(F)c1)N1CC[C@@]2(CCCN(S(=O)(=O)c3ccccc3)C2)C1	6%
101	CN(C)C(=O)COC(=O)c1ccc(S(=O)(=O)NCc2ccco2)cc1	-12%
102	CSc1ccccc1NC(=O)NCCCl	-6%
103	COc1ccc2sc(-c3ccccc3OC)c(-c3ccc(OC)nc3)c2c1	-3%
104	C[C@]12C(=O)N(c3ccccc3)C(=O)N1[C@H]1c3ccccc3OC[C@@H]1[C@H]2c1ccccc1	-16%
105	Cc1c(C(=O)N2CCCCCC2)c(S(=O)(=O)NCc2ccccc2)c(C)n1C	3%
106	COC(=O)Nc1c(-c2ccccc2)nc2ccc(Cl)cn12	5%
107	COc1cccc(N2CCN(S(=O)(=O)c3ccc4c(c3)CC(C)N4C(=O)C3CC3)CC2)c1 (stereo not drawn)	0%
108	COc1ccc(S(=O)(=O)N(CC(=O)NCc2ccccc2OC)c2ccc(C)cc2)cc1	-8%
109	CCOC(=O)c1cnc2cc(-c3ccc(Cl)cc3)nn2c1N	-9%
110	CCOc1ccccc1CNCc1c(C(=O)O)c(C)n(Cc2ccc(Cl)cc2)c1C	2%
111	C=CCNC(=O)CC(C)C(CCCCC)C(=O)O (stereo not drawn)	-1%
112	Cc1ccc(NC2=C/C(=N/S(=O)(=O)c3cccs3)c3ccccc3C2=O)cc1C	-22%
113	CCN(CC)S(=O)(=O)c1ccc(-c2nnc(SCC(=O)N3c4ccccc4CC3C)n2CC)cc1 (stereo not drawn)	-2%
114	Cc1ccnc(NC(=O)c2ccc3c(c2)C(=O)N(CC2CCCO2)C3=O)c1 (stereo not drawn)	-3%
115	COC(=O)c1cc[n+](CC(=O)c2ccccc2)cc1	21%
116	CN1CCN(/N=C/c2nc(-c3ccccc3Cl)n3ccccc23)CC1	15%
117	Cc1ccc(C)c(Sc2ccc(S(=O)(=O)Nc3ccc(C(=O)O)cc3)cc2)c1	-24%
118	COC(=O)CN1C(=O)CSc2ccc(S(=O)(=O)Nc3ccccc3)cc21	13%
119	C/C(=N/Nc1nc(-c2ccccc2F)nc2ccccc12)c1ccccc1O	-11%
120	CCc1ccc(NC(=O)C(=O)NNC(=O)c2cccc(OC)c2)cc1	-13%
121	Cc1cc(C)nc(N=Nc2c(O)n(Cc3ccc(Cl)cc3)c3ccccc23)n1	6%
122	COc1ccc(CN2CCC(N3CC(C)OC(C)C3)CC2)c(OC)c1OC (stereo not drawn)	-1%
123	CN(CCN(C)c1nc(-c2cccs2)nc2ccccc12)C(=O)OC(C)(C)C	-16%
124	COc1ccc(OCC(=O)Nc2ccc(S(=O)(=O)N(C)c3ccccc3)cc2)cc1	-9%
125	O=C(COC(=O)c1ccccc1)c1ccc2c(c1)OCCO2	9%

Some of the compounds tested, so the mix of outcomes need not match the whole.
